# Screens as filed in PubChem BioAssay.
# NS1 function inh: blocks influenza NS1 protein function. S. cerevisiae slowed by influenza A NS1, growth recovery by OD600. Potency, µM (series often up to 46.1 µM), for the others: at the highest dose activity, positive = more growth. 0.4% of 270,000 active; active means well fitted rising curve with a large enough effect; inconclusive means small, poorly fitted or top-dose-only effect; inactive means no such curve, though single readings can be large or run the other way; note: nearly all actives have a fitted effect of over 50% in size
#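 A cell-based growth assay was used: compounds that relieve NS1-induced slow growth of budding yeast raise OD600. Assay medium was yeast nitrogen base with ammonium sulphate and -URA supplement, pH 6.0, with 2% galactose.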
# 2A StopGo: FMDV 2A StopGo reporter, luciferase signal. human cells with a luciferase reporter of 2A StopGo recoding; control for the full effect not named in the record. Potency, µM (series often up to 57.9 µM), without a hit: top-dose signal change, negative = less light. 1.2% of 410,000 active. AID 1159524; active = well fitted falling curve with a large enough effect; inconclusive = small, poorly fitted or top-dose-only effect; inactive = no such curve, though single readings can be large or run the other way; tested in HEK293T cells; note: % is set by controls: 0 for no effect and ±100 for the full control effect; nearly all actives have a fitted effect of over 45% in size; luciferase light after 4 h
# SARS PLP yeast: inhibitors of SARS-CoV papain-like protease in yeast; 0.19% of 330,000 active; S. cerevisiae expressing SARS-CoV PLpro, growth rescue; control for the full effect not named in the record; Potency, µM (series often up to 32.9 µM), inactives show top-dose activity, positive = growth rescue; AID 485353; active means well fitted rising curve with a large enough effect; inconclusive means small, poorly fitted or top-dose-only effect; inactive means no such curve, though single readings can be large or run the other way; note: 0% is about no effect; nearly all actives have a fitted effect of over 55% in size; growth read by luminescence after 48 h
# LASV entry inh: blocks Lassa virus binding to or entry into cells | Lassa virus pseudotype entry inhibition, cell reporter; control for the full effect not named in the record | Potency, µM (top dose mostly 37.9 µM), for the others: top-dose activity change, negative = inhibition, actives largely listed as inhibitors | 1.2% of 300,000 active | AID 540256; active means well fitted inhibition curve with a large enough effect; inconclusive means small, poorly fitted or top-dose-only effect, or effect the other way; inactive means flat fitted curve, though single readings scatter; tested in HEK293 cells; note: % is set by controls: 0 for no effect and ±100 for the full control effect; nearly all actives have a fitted effect of over 50% in size; luciferase read-out
# MARV entry inh: inhibitors of Marburg virus binding or cell entry | Potency, µM (series often up to 37.8 µM), for the others: at the top dose activity change, negative = inhibition, actives largely listed as inhibitors | Marburg virus pseudotyped entry inhibition, cell reporter; control for the full effect not named in the record; about a third of the inactives were read at about 46 µM | 1.8% of 300,000 active | AID 540276; active = well fitted inhibition curve with a large enough effect; inconclusive = small, poorly fitted or top-dose-only effect, or effect the other way; inactive = flat fitted curve, though single readings scatter; tested in HEK293 cells; about a fifth of its hits are not listed in these tables; note: % is set by controls: 0 for no effect and ±100 for the full control effect; luciferase read-out
# Cruzain inh Det: cruzain (T. cruzi) inhibition with detergent; P25779; purified cruzain, Z-FR-AMC fluorescence, 0.01% Triton; Potency, µM, for inactives: max response, negative = inhibition, hits mostly inhibitors; 0.43% of 200,000 active; AID 1478;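 note: plate controls were neutral wells for no effect and buffer without enzyme for full effect; nearly all actives have a fitted effect of over 40% in size; top concentration of the series not given in the record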
# Target sequence (P25779 123-467 limits assumed): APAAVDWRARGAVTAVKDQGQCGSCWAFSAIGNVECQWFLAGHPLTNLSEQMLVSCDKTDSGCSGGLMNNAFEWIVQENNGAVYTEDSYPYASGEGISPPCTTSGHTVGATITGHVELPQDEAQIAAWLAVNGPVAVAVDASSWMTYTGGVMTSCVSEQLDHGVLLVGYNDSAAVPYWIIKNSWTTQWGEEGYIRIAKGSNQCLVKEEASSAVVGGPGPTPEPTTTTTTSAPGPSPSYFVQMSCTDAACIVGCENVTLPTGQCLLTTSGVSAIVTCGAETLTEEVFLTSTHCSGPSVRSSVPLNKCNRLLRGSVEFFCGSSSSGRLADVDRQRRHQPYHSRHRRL
#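 In this qHTS format, compounds are incubated with 1.5 nM cruzain for 15 min at room temperature before 2 uM Z-FR-AMC is added. Release of AMC is followed at 360/450 nm, and progress is taken as the 60 s fluorescence difference.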
# Cruzain noTriton: cruzain (T. cruzi) inhibition without detergent; P25779; purified cruzain, Z-FR-AMC fluorescence, no detergent; AID 1476; Potency, µM, without a hit: max response, negative = inhibition, usual class: inhibitors; 2.3% of 200,000 active;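 note: plate controls were enzyme without inhibitor for no effect and buffer without enzyme for full effect; nearly all actives have a fitted effect of over 40% in size; top concentration of the series not given in the record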
#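 Detergent-free condition (0.00005% Triton X-100) in acetate buffer pH 5.5 with DTT. 1.5 nM enzyme and compound were pre-mixed 15 min, then 2 uM Z-FR-AMC substrate added; reaction progress from fluorescence change between first and third reads (60 s).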
# RE007 growth inh: less growth of the S. pombe RE007 Vpr strain; 0.21% of 360,000 active; Potency, µM (top dose mostly 92.2 µM), inactives show at the highest dose activity change, negative = less growth; S. pombe RE007 Vpr strain, BacTiter-Glo ATP luminescence, 24 h; control for the full effect not named in the record; active = well fitted falling curve with a large enough effect; inconclusive = small, poorly fitted or top-dose-only effect; inactive = no such curve, though single readings can be large or run the other way;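 note: % is set by controls: 0 for no effect and ±100 for the full control effect; nearly all actives have a fitted effect of over 50% in size; the assay follows cell death caused by Vpr and the record does not say whether a fall means rescue or toxicity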
#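 Fission yeast strain RE007, carrying one chromosomally integrated HIV-1 vpr copy, was seeded at OD 0.01 in PMG+AL medium with 23 nL pinned compound. After 24 h at 30 °C and 99% humidity, viability was read by BacTiter-Glo luminescence.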
# An asterisk follows results filed as active; u = inconclusive; x = not tested or not shown; & = joins results of further samples; [ ] = another dose, or the depositor's remark. Unless noted, calls come from the whole dose curve; as a rule, active = well fitted curve in the direction sought with a large enough effect; inconclusive = small, poorly fitted or top-dose-only effect, or another doubt; inactive = no such curve, though single readings can be large; an effect the other way counts as inactive or inconclusive. Potency is the fitted concentration of half-maximal effect.
nr	Structure	NS1 function inh	2A StopGo	SARS PLP yeast	LASV entry inh	MARV entry inh	Cruzain inh Det	Cruzain noTriton	RE007 growth inh
1	O=C(COc1ccc(Br)cc1)N1CCCCCC1	-52%	42%[activator]	1%	12%	14%	-0.6%	-5%	9%
2	CS(=O)(=O)Nc1ccc2c(c1)nc1n2CCOC1	9%	-20%	1%	9%	22%	-2.2%	2%	35%
3	Cc1ncn(-c2ccc(C(=O)Oc3ccccc3)cn2)n1	x	3%	2%	2%	28%[46.1 µM]	x	x	-2%
4	CCOc1ccccc1OCCCOc1ccc([N+](=O)[O-])cc1Cl	-91%	-15%	-33%	11%	-2%[46.1 µM]	-5.5%	-5%	6%
5	CC(=O)Nc1ccc(S(=O)(=O)N2CCN(CC(=O)NC3CCCC3)CC2)cc1	0%	-20%	3%	0%	-13%	5.5%	0%	6%
6	CC1(C)CNC(=O)C=C(c2ccccc2)C1	16%	x	-4%	0%	1%	0.9%	9%	13%
7	COc1cc(C(=O)NNC2=CC(=O)CC(C)(C)C2)cc(OC)c1OC	2%	-8%	0%	10%	-1%	-2.5%	-6%	4%
8	COc1ccc(S(=O)(=O)Oc2ccc3c(c2)O/C(=C\c2cccnc2)C3=O)cc1	2%	-6%	5%	-28%	-25%	-2.6%	u	-3%
9	CCCCCCCCCCCCCC(=O)O[C@@H]1[C@@H](C)[C@@]2(O)[C@@H](C=C(CO)C[C@@]3(O)C(=O)C(C)=C[C@@H]23)C2C(C)(C)[C@@]21OC(C)=O (stereo partly specified)	10%	x	x	6.5µM*	22µM*	-4.7%	u	x
10	COc1ccc(NC(=O)c2cc(SC)ccc2Cl)cc1	-1%	3%	-8%	-23%	-7%	0.2%	-7%	-1%
11	CCOC(=O)N1CCC(NC(=O)CN2C(=O)CCSc3ccccc32)CC1	-9%	0%	3%	x	x	-1.2%	0%	-3%
12	CCc1cccc(C)c1NC(=O)CN1C(=O)c2cccc3cccc1c23	x	-21%	x	x	-6%[46.1 µM]	-1.2%	-2%	x
13	COc1ccc(S(=O)(=O)c2cn(C)c3ccc(C)cc3c2=O)cc1	x	35%[activator]	x	u	-22%[46.1 µM]	-3.3%	9%	x
14	O=C(NC1CCCCC1)c1ccc(CNc2nc(=S)[nH]c3ccccc23)cc1	-1%	16%	-1%	x	11%[46.1 µM]	x	x	-4%
15	COc1cc(CN(C(=O)COc2ccccc2Cl)c2ccccn2)cc(OC)c1OC	x	-5%	x	1%[46.1 µM]	4%[46.1 µM]	-2.0%	u	x
16	Brc1ccc(C2=Nn3c(nnc3-c3cccnc3)SC2)s1	4%	2%	-7%	-11%	9%[46.1 µM]	4.1%	6%	24%
17	CN(C(=O)COC(=O)CNC(=O)CNC(=O)c1ccc(Cl)cc1Cl)c1ccccc1	0%	-10%	-1%	7%	u	x	x	20%
18	COc1cc(C2CC(=O)NC3=C2C(=O)CC(C)(C)C3)ccc1O (stereo unspecified)	u	0%	-1%	10%	18%&18%[46.1 µM]	7.7%	-10%	1%
19	COc1ccc2[nH]c3c(c2c1)CCN(C(=O)c1cccc(Cl)c1)C3c1ccc(F)cc1 (stereo unspecified)	x	-15%	x	u	1µM*	7.7%	u	x
20	NNC(=O)c1ccc(N2CCc3ccccc32)c([N+](=O)[O-])c1	x	u	-1%	-3%	u	x	x	-24%
21	COc1ccc(Cn2c(C(=O)O)c(CNCCc3ccccc3Cl)c3ccc(C)cc32)cc1	x	-54%	x	-27%[46.1 µM]	x	-8.6%	u	x
22	CCC(=O)N1CCc2cc(Br)cc(S(=O)(=O)CCC(=O)Nc3cccc(C)c3C)c21	x	41%[activator]	x	8%[46.1 µM]	7%[46.1 µM]	1.3%	18%	x
23	COc1ccc(N2CCCn3c2nc2c3c(=O)n(Cc3ccccc3)c(=O)n2C)c(OC)c1	-1%	u	-1%	u	u	x	x	0%
24	CCOC(=O)C1C(C#N)=C(N)OC(C)=C1c1ccncc1 (stereo unspecified)	-4%	-15%	0%	-12%	2%	-7.4%	-5%	-10%

# Compound profiles (already shown). Order of values: NS1 function inh	2A StopGo	SARS PLP yeast	LASV entry inh	MARV entry inh	Cruzain inh Det	Cruzain noTriton	RE007 growth inh
# Results for COc1ccc(Cn2c(C(=O)O)c(CNCCc3ccccc3Cl)c3ccc(C)cc32)cc1 → x	-54%	x	-27%[46.1 µM]	x	-8.6%	u	x
# Results for COc1cc(C2CC(=O)NC3=C2C(=O)CC(C)(C)C3)ccc1O (stereo unspecified) → u	0%	-1%	10%	18%&18%[46.1 µM]	7.7%	-10%	1%

# Remaining list, next part
nr	Structure	NS1 function inh	2A StopGo	SARS PLP yeast	LASV entry inh	MARV entry inh	Cruzain inh Det	Cruzain noTriton	RE007 growth inh
25	CCOC(=O)C1CCCN(S(=O)(=O)Cc2ccccc2Cl)C1 (stereo unspecified)	7%	-20%	0%	x	x	x	x	1%
26	O=P(O)(O)c1ccccc1OCCCCCOc1ccccc1P(=O)(O)O	-4%	-7%	4%	5%	2%&3%	1.2%	2%	-5%
27	N#CCN1CCN(CC(=O)Nc2ccc(OCc3ccccc3)cc2)CC1	-16%	-8%	0%	25%	u	2.8%	-23%	-4%
28	CC(C)n1c(/C=C/[C@@H](O)C[C@@H](O)CC(=O)O)c(-c2ccc(F)cc2)c2ccccc21	-77%	-27%	-12%	x	x	x	x	-11%[18.4 µM]
29	COc1ccc(Cc2nnc(NS(=O)(=O)c3ccc(NC(C)=O)cc3)s2)cc1	8%	14%	9%	-5%	-2%[46.1 µM]	x	x	9%
30	CCCCc1ccc(NC(=O)CSc2nc(=O)n(CCN(C)C)c3c2CCC3)cc1	x	2%	1%	u	u	x	x	6%
31	Cc1cc2c(cc1C)N(Cc1ccccc1)C1=NCCCN12	-5%	-1%	-2%	x	x	x	x	-8%
32	O=[N+]([O-])c1ccc(CSCc2ccc([N+](=O)[O-])cc2)cc1	x	-15%	x	-19%	9%	x	x	2%
33	O=C(Cc1cccc2ccccc12)Nc1ccccc1	x	40%[activator]	x	u	3%[46.1 µM]	x	x	-14%
34	O=C(NCc1ccccn1)C(=O)Nc1nc(-c2ccccc2)cs1	4%	-6%	-3%	3%[46.1 µM]	-3%[46.1 µM]	x	x	-15%
35	CCOC(=O)C1=C(C)OC(N)=C(C#N)C1c1cc2c(cc1[N+](=O)[O-])OCO2 (stereo unspecified)	x	-15%	0%	-10%	-5%[46.1 µM]	x	x	1%
36	Cc1cc(C)nc(NC(=O)C(c2ccccc2)c2ccccc2)c1	-48%	u	4%	6%	u	-7.2%	-16%	-2%
37	Nn1c(SCC(=O)Nc2ccccc2)nnc(Cc2ccccc2)c1=O	x	-23%	2%	-21%[46.1 µM]	-12%	x	x	-3%
38	Cc1ccsc1CCN1C(=O)N(c2ccc(F)cc2)C(=O)C1CC(=O)Nc1ccccc1 (stereo unspecified)	x	-1%	x	-28%[46.1 µM]	u	-5.3%	13%	x
39	O=C(COC(=O)C1CCN(/C=C/C(=O)C(F)(F)F)CC1)Nc1cccc(F)c1	1%	3%	4%	u	u	-8.1%	-2%	4%
40	CCN1C=C(Cc2ccc(F)cc2)C2=C(C1)C(c1ccc(F)cc1)C(C#N)=C(N)O2 (stereo unspecified)	-1%	u	-1%	u	u	-4.8%	-2%	-3%
41	Cn1c(=O)c2ccccc2n(Cc2ccccc2F)c1=O	-5%	u	3%	-23%	3%&0%	0.9%	-5%	-5%
42	CCN(CC(=O)Nc1c(F)cccc1F)C(=O)COc1ccc2c(C)cc(=O)oc2c1	9%	10%	4%	4%	-3%	x	x	-8%
43	COc1cc(C(CCN2CCCC(C)C2)c2c(OC)cc(OC)c3c(-c4ccccc4)cc(=O)oc23)cc(OC)c1OC (stereo unspecified)	-32%	14%	-1%	x	x	x	x	7%
44	O=C(N/N=C/c1ccc(OCc2ccccc2)cc1)c1ccco1	-62%	16%	-1%	-4%[46.1 µM]	u	x	x	4%
45	COC(=O)CSc1nc2c(c(-c3ccco3)c1C#N)CCCC2	-53%	-25%	-5%	-13%	10%	28µM*	20µM*	0%
46	COc1ccc(Cl)cc1CNCCSc1nnnn1-c1ccccc1	x	-10%	x	-8%[46.1 µM]	3%[46.1 µM]	-0.4%	-1%	x
47	Cc1ccccc1-n1c(O)c(/C=N/N2CCCCC2c2cccnc2)c(=O)[nH]c1=O (stereo unspecified)	5%	-20%	-1%	0%	-13%	-2.5%	1%	21%
48	Cc1cc(NC(=O)c2cccnc2)ccc1NC(=O)c1cc2ccccc2o1	-2%	u	2%	x	x	x	x	-18%
49	CC(c1ccccc1)n1c(CO)nc2ccccc21 (stereo unspecified)	8%	-5%	-6%	x	x	x	x	13%
50	CC1=NOC(=O)/C1=C\c1ccc(-c2cc(Cl)ccc2Cl)o1	-53%	10µM*	2%	22%	9%	-6.5%	u	0%
51	CC(=O)c1c(C)oc2ccc(N(C(=O)Oc3ccccc3)S(=O)(=O)c3ccc(Br)cc3)cc12	x	6%	x	13%[46.1 µM]	28%[46.1 µM]	0.5%	-3%	x
52	Cc1nnc2c3ccccc3nc(Nc3ccccc3C(=O)O)n12	x	-24%	x	-19%[46.1 µM]	-1%[46.1 µM]	-1.4%	-3%	x
53	COc1ccc2[nH]c(C)c(CCNCc3cc(OC)c(OC)c(OC)c3)c2c1	x	-28%	1%	-28%	-30%[46.1 µM]	x	x	-6%
54	COc1cccc(C(=O)Nc2cc(NC(=O)c3cccs3)ccc2C)c1	-16%	16%	-2%	x	x	x	x	2%
55	Cc1ccc(C(=O)NCCn2c(C)cc3ccccc32)cc1C	x	-7%	x	u	u	-8.2%	6%	x
56	CCc1ccc(NC(=O)CCS(=O)(=O)c2ccc(Cl)cc2)cc1	2%	-6%	2%	x	x	x	x	5%

# By substructure: the compounds so far with two or more sulfur atoms
nr	Structure	NS1 function inh	2A StopGo	SARS PLP yeast	LASV entry inh	MARV entry inh	Cruzain inh Det	Cruzain noTriton	RE007 growth inh
16	Brc1ccc(C2=Nn3c(nnc3-c3cccnc3)SC2)s1	4%	2%	-7%	-11%	9%[46.1 µM]	4.1%	6%	24%
29	COc1ccc(Cc2nnc(NS(=O)(=O)c3ccc(NC(C)=O)cc3)s2)cc1	8%	14%	9%	-5%	-2%[46.1 µM]	x	x	9%
